Bioassay records from PubChem BioAssay.
RE007 growth inh – qHTS Assay for Inhibitors of the HIV-1 protein Vpr | S. pombe RE007 Vpr strain, BacTiter-Glo ATP luminescence, 24 h; control for the full effect not named in the record | Potency, µM (doses to about 92.2 µM), for the others: at the highest dose activity change, negative = less growth | 360,000 compounds, 0.21% hits; active = well fitted falling curve with a large enough effect; inconclusive = small, poorly fitted or top-dose-only effect; inactive = no such curve, though single readings can be large or run the other way;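 note: % is set by controls: 0 for no effect and ±100 for the full control effect; nearly all actives have a fitted effect of over 50% in size; the assay follows cell death caused by Vpr and the record does not say whether a fall means rescue or toxicity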
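Fission yeast strain RE007, carrying one chromosomally integrated HIV-1 vpr copy, was seeded at OD 0.01 in PMG+AL medium with 23 nL pinned compound. After 24 h at 30 °C and 99% humidity, viability was read by BacTiter-Glo luminescence.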
Marburg entry inh – qHTS for inhibitors of binding or entry into cells for Marburg Virus | Marburg virus pseudotyped entry inhibition, cell reporter; control for the full effect not named in the record; about a third of the inactives were read at about 46 µM | 300,000 compounds, 1.8% hits | Potency, µM (highest dose often 37.8 µM), inactives show at the highest dose activity change, negative = inhibition, actives largely listed as inhibitors; active = well fitted inhibition curve with a large enough effect; inconclusive = small, poorly fitted or top-dose-only effect, or effect the other way; inactive = flat fitted curve, though single readings scatter; tested in HEK293 cells; about a fifth of its hits are not listed in these tables; note: % is set by controls: 0 for no effect and ±100 for the full control effect; luciferase read-out
2A StopGo – High Throughput Screening for Foot and Mouth Disease Virus Antivirals; human cells with a luciferase reporter of 2A StopGo recoding; control for the full effect not named in the record; Potency, µM (top dose mostly 57.9 µM), without a hit: at the highest dose signal change, negative = less light; 410,000 compounds, 1.2% hits; active = well fitted falling curve with a large enough effect; inconclusive = small, poorly fitted or top-dose-only effect; inactive = no such curve, though single readings can be large or run the other way; tested in HEK293T cells; note: % is set by controls: 0 for no effect and ±100 for the full control effect; nearly all actives have a fitted effect of over 45% in size; luciferase light after 4 h
Cruzain inh noDet – qHTS Assay for Promiscuous and Specific Inhibitors of Cruzain (without detergent); Cruzipain (Trypanosoma cruzi), P25779; purified cruzain, Z-FR-AMC fluorescence, no detergent; Potency, µM, for the others: max response, negative = inhibition, hits mostly inhibitors; 200,000 compounds, 2.3% hits; AID 1476, 2009; active = well fitted curve in the direction sought with a large enough effect; inconclusive = small, poorly fitted or top-dose-only effect, or another doubt; inactive = no such curve, though single readings can be large; an effect the other way counts as inactive or inconclusive;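 note: plate controls were enzyme without inhibitor for no effect and buffer without enzyme for full effect; nearly all actives have a fitted effect of over 40% in size; top concentration of the series not given in the record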
Target sequence (P25779 123-467 limits assumed): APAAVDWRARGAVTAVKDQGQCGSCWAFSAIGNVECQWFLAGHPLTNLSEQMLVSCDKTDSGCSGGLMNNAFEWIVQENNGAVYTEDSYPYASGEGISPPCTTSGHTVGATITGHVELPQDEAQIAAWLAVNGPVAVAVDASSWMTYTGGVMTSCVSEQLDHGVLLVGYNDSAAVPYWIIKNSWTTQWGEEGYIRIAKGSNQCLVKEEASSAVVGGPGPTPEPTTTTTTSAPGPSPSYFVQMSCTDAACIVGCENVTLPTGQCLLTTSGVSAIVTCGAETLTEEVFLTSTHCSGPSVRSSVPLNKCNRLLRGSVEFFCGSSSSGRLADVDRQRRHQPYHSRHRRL
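Purified cruzain at 1.5 nM, pre-incubated 15 min with compound at room temperature in 100 mM sodium acetate pH 5.5, 5 mM DTT, 0.00005% Triton X-100. Reaction started with 2 uM Z-FR-AMC; AMC fluorescence increase over 60 s gives rate.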
Cruzain Triton – qHTS Assay for Promiscuous and Specific Inhibitors of Cruzain (with detergent). AID 1478, 2009. Cruzipain (Trypanosoma cruzi), P25779. purified cruzain, Z-FR-AMC fluorescence, 0.01% Triton. 200,000 compounds, 0.43% hits. Potency, µM, inactives show max response, negative = inhibition, usual class: inhibitors; active = well fitted curve in the direction sought with a large enough effect; inconclusive = small, poorly fitted or top-dose-only effect, or another doubt; inactive = no such curve, though single readings can be large; an effect the other way counts as inactive or inconclusive;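 note: plate controls were neutral wells for no effect and buffer without enzyme for full effect; nearly all actives have a fitted effect of over 40% in size; top concentration of the series not given in the record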
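Detergent-containing arm of a paired screen for aggregation-based inhibition: 0.01% Triton X-100 present. Cruzain at 1.5 nM cleaved 2 uM Z-FR-AMC at pH 5.5 with 5 mM DTT; AMC fluorescence gain over 60 s measured activity.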
LASV entry inh – qHTS for Inhibitors of binding or entry into cells for Lassa Virus; Lassa virus pseudotype entry inhibition, cell reporter; control for the full effect not named in the record; Potency, µM (titrated, usually from 37.9 µM), for inactives: at the highest dose activity change, negative = inhibition, hits mostly inhibitors; 300,000 compounds, 1.2% hits; active means well fitted inhibition curve with a large enough effect; inconclusive means small, poorly fitted or top-dose-only effect, or effect the other way; inactive means flat fitted curve, though single readings scatter; tested in HEK293 cells; note: % is set by controls: 0 for no effect and ±100 for the full control effect; nearly all actives have a fitted effect of over 50% in size; luciferase read-out
SARS PLP yeast – qHTS of Yeast-based Assay for SARS-CoV PLP; 330,000 compounds, 0.19% hits; S. cerevisiae expressing SARS-CoV PLpro, growth rescue; control for the full effect not named in the record; Potency, µM (top dose mostly 32.9 µM), for the others: at the top dose activity, positive = growth rescue; note: 0% is about no effect; nearly all actives have a fitted effect of over 55% in size; growth read by luminescence after 48 h
NS1 inh – qHTS Assay for Inhibitors of Influenza NS1 Protein Function; Potency, µM (top dose mostly 46.1 µM), for the others: at the top dose activity, positive = more growth; S. cerevisiae slowed by influenza A NS1, growth recovery by OD600; AID 2326, 2010; 270,000 compounds, 0.4% hits; note: actives are rising curves; nearly all actives have a fitted effect of over 50% in size
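Read-out: OD600 growth recovery of NS1-expressing budding yeast. Cells grown overnight at 30C in -URA glucose medium, washed, resuspended and diluted 1:100 in 2% galactose assay medium, pH 6.0. Same strain lacking NS1 served as positive control.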
Numbers without * were called inactive; ? = inconclusive; / = not tested or not shown; [ ] = remark or other dose. Unless noted, calls come from the whole dose curve; as a rule, active means well fitted rising curve with a large enough effect; inconclusive means small, poorly fitted or top-dose-only effect; inactive means no such curve, though single readings can be large or run the other way. Potency is the fitted concentration of half-maximal effect.

Below each SMILES – RE007 growth inh, Marburg entry inh, 2A StopGo, Cruzain inh noDet, Cruzain Triton, LASV entry inh, SARS PLP yeast, NS1 inh
1: CCc1ccc2[nH]c(=O)c(CN(CC3CCCO3)C(=S)NCc3ccco3)cc2c1 (stereo not given)
→ 12%, /, -14%, /, /, /, 1%, 12%
2: COc1ccc(-c2cc(C)no2)cc1S(=O)(=O)N(C)c1ccc(C)c(C)c1
→ -2%, /, ?, /, /, /, 0%, 18%
3: COc1ccc(CC(=O)OCC(=O)NC2CCCCC2)cc1OC
→ -24%, -27%, -2%, /, /, -5%, 1%, /
4: Cc1nnnn1CC(=O)Nc1ccccc1[N+](=O)[O-]
→ 5%, 1%, -15%, 11%, 0.4%, 5%, 6%, 1%
5: CCn1c(CN2CCCCC2)nc2cc(NC(=O)c3cccc([N+](=O)[O-])c3)ccc21
→ /, 0%[46.1 µM], -18%, -2%, -5.9%, 11%[46.1 µM], /, /
6: Cc1ccc(OCC(=O)Nc2ccc3nc(SCCOc4ccccc4)sc3c2)cc1
→ /, 3%[46.1 µM], -15%, -1%, -1.9%, 12%[46.1 µM], /, /
7: Cc1ccn2c(Nc3ccc(C(C)C)cc3)c(-c3cccs3)nc2c1
→ /, ?, 8%, -8%, -4.4%, 27%[46.1 µM], /, /
8: COc1ccc(CCNC(=O)c2cccc(NC3=NC4CS(=O)(=O)CC4S3)c2)c(OC)c1 (stereo not given)
→ 1%, /, -9%, /, /, /, 2%, 21%
9: COc1cccc(CNC(=O)Cn2c(=O)n3nc(-c4cccc(F)c4)nc3c3ccccc32)c1
→ /, /, 6%, 14%, 0.1%, 8%[46.1 µM], /, /
10: O=C(Nc1ccc(Br)cc1)c1ccc(F)c(S(=O)(=O)N2CCCc3ccccc32)c1
→ /, /, ?, ?, 0.4%, ?, /, /
11: O=C(COC(=O)c1cc(Cl)ccc1[N+](=O)[O-])Nc1cccc2ccccc12
→ -1%, 1%, -6%, ?, -10%, ?, -13%, -5%
12: CC(C)C1(C)C(=O)N=C2c3ccccc3C(=O)N21 (stereo not given)
→ 3%, 17%[46.1 µM], 10%, 0%, 11%, ?, 5%, 3%
13: CCOC(=O)c1sc(NC(=O)CSc2nnc(-c3ccc(OC)cc3)n2CCOC)nc1C
→ 0%[3.69 µM], 24%, 0%, ?, -7.4%, -14%, -12%, -40%
14: COCCN(C(=O)COc1ccc(Cl)cc1)c1nnc(-c2cccnc2)s1
→ -11%, 8%, -3%, ?, -0.2%, 8%, -2%, 7%
15: CCCCOCCCNS(=O)(=O)Cc1ccccc1
→ 1%, 7%, 17%, 8%, -1.3%, 26%, -7%, -1%
16: COc1ccccc1OCc1nc(C#N)c(N2CC(C)CC(C)C2)o1 (stereo not given)
→ -9%, /, -17%, 6%, -4.0%, /, -6%, -37%
17: CC1CCc2c(sc3nc4n(c(=O)c23)CCS4)C1 (stereo not given)
→ 13µM*, -2%, 53%[activator], ?, -4.7%, -7%, -9%, -8%
18: CCCSc1ncc(Cl)c(C(=O)NCc2ccc(C)cc2)n1
→ /, 23%[46.1 µM], ?, -6%, -6.1%, -14%[46.1 µM], /, /
19: COC(=O)/C=C1\C(=O)N(c2nc3ccc(OC)cc3s2)C(=S)N1c1ccc(F)cc1
→ /, /, /, 8%, -2.2%, /, 0%, 4%
20: CC(=O)Nc1c(Br)cc2c(c1Br)Cc1cc(Br)ccc1-2
→ 5%, ?, 3%, /, /, -20%, /, /
21: COc1ccc(-n2c(SCC(=O)NCc3ccco3)nnc2-c2c[nH]c3ccccc23)cc1
→ -7%, /, -23%, -16%, -5.2%, /, -8%, 23%
22: Clc1ccc(-c2cn(-c3ccccc3)c3[n+]2CCS3)cc1
→ -28%, ?, -16%, /, /, ?, 1%, -6%
23: CCOc1ccc(NC(=O)CC2Nc3ccccc3NC2=O)cc1 (stereo not given)
→ -12%, 7%, 2%, /, /, ?, -1%, /
24: COc1ccc(/C=C/C(=O)O)cc1S(=O)(=O)N1CCCCC1
→ -2%, /, 5%, /, /, /, 0%, 5%
25: CCOc1ccccc1NC(=O)CCS(=O)(=O)c1cccs1
→ 3%, 2%[46.1 µM], 16%, /, /, -1%[46.1 µM], -3%, 4%
26: COc1ccc(Cl)cc1NC(=O)C(C)N(C)Cc1cccc(Cl)c1Cl (stereo not given)
→ 3%, ?, -15%, 5%, -6.9%, 4%, -4%, -2%
27: CC(C)(C)NC(=O)NC(=O)CN1CCCCCCC1
→ 8%, 9%[14.2 µM], 2%, /, /, ?, 0%, 1%
28: COc1ccccc1CN1CCC(n2nccc2NC(=O)CCc2ccccc2)CC1
→ 3%, ?, -1%, /, /, 2%[46.1 µM], 0%, -4%
29: Cc1cc(C)n(Cc2ccc(F)cc2)c(=O)c1C#N
→ 8%, 5%, -12%, 1%, -3.3%, -4%, 2%, -9%
30: O=C(c1ccco1)N1CCN(c2ccnc3cc(Cl)ccc23)CC1
→ -8%, /, ?, /, /, /, 0%, -3%
31: CCC(=O)Nc1cc2nn(-c3ccccc3)nc2cc1Cl
→ -5%, ?, 9%, 11%, -0.5%, 17%, 0%, 12%
32: COCCNc1ccc2cc(S(=O)(=O)N3CCCCC3)ccc2n1
→ /, /, 25%, -7%, -3.1%, -1%[46.1 µM], /, /
33: O=C(Cc1ccccc1)Nc1ccccc1C(=O)N1CCN(c2ccccc2)CC1
→ 1%, -14%, 3%, /, /, -2%, -2%, 11%
34: Cc1c(OCC(=O)NCC2CCC(C(=O)O)CC2)ccc2c(-c3ccccc3)cc(=O)oc12 (stereo not given)
→ -7%, /, -21%, /, /, /, 0%, 9%
35: Fc1ccc(F)c(C2=NNC(=Nc3ccccc3F)SC2)c1
→ -11%, ?, 28%, ?, -4.6%, ?, -50%, -16%
36: CCCNC(=O)C1CCN(S(=O)(=O)c2cccs2)CC1
→ 2%, /, -7%, /, /, /, -2%, -4%
37: Cc1ccc(-n2c(-c3cc(C)n(C)n3)n[nH]c2=S)cc1
→ 11%, 20%, -3%, -4%, 3.0%, 15%, 12%, 6%
38: CC(=O)N1CCc2c(sc3c2c(=O)n(Cc2ccccc2)c(=O)n3Cc2ccc(Cl)cc2)C1
→ /, ?, ?, 2%, 0.2%, /, /, /
39: CCCCC(=O)Nc1ccc(NC(=O)C2CC2)nc1
→ 12%, 1%[46.1 µM], 18%, -4%, 3.3%, 2%, -5%, 1%
40: Cc1nc2c(C(=O)NCCC(C)C)c[nH]n2c(=O)c1Cl
→ 8%, 5%, -5%, 16%, -9.2%, 1%, 9%, -1%

An excerpt of these results, with one line to a screen.
[28] COc1ccccc1CN1CCC(n2nccc2NC(=O)CCc2ccccc2)CC1
[29] Cc1cc(C)n(Cc2ccc(F)cc2)c(=O)c1C#N
entry no.	28	29
RE007 growth inh	3%	8%
Marburg entry inh	?	5%
2A StopGo	-1%	-12%
Cruzain inh noDet	/	1%
Cruzain Triton	/	-3.3%
LASV entry inh	2%[46.1 µM]	-4%
SARS PLP yeast	0%	2%
NS1 inh	-4%	-9%

(list continues)
Below each SMILES – RE007 growth inh, Marburg entry inh, 2A StopGo, Cruzain inh noDet, Cruzain Triton, LASV entry inh, SARS PLP yeast, NS1 inh
41: CCOc1ccc(Oc2ccccc2NC(=O)CSCC(=O)Nc2cc(C)on2)cc1
→ 7%, ?, ?, /, /, ?, -5%, /
42: CN(C)c1ccc(C(=O)Nc2ccc(S(=O)(=O)Nc3nccs3)cc2)cc1
→ -7%, ?, 21%, /, /, 4%, 0%, 15%
43: COc1ccc(CNC(=O)Cn2nc([N+](=O)[O-])cc2C)cc1
→ 4%, /, 0%, /, /, /, 0%, -2%
44: Cc1c(NC(=O)C2C3C=CC(C3)C2C(=O)O)c(=O)n(-c2ccccc2)n1C (stereo not given)
→ -5%, 4%, /, 2%, 1.5%, 17%, -2%, 7%
45: CCN(c1ccccc1)S(=O)(=O)c1nnc(NC(=O)C2CCCCC2)s1
→ /, /, -4%, -2%, -3.5%, -10%[46.1 µM], /, /
46: CCCN(Cc1cc2cc(OC)ccc2[nH]c1=O)C(=O)c1ccco1
→ 1%, -6%, -18%, /, /, -4%, -2%, -4%
47: Cc1cc(N2C(=O)C(O)=C(C(=O)c3cc4ccccc4o3)C2c2ccc([N+](=O)[O-])cc2)no1 (stereo not given)
→ 1%, /, 0%, /, /, /, -1%, 28%
48: CC(=O)Nc1nc2ccc(-c3nc4ccccc4o3)cc2s1
→ -1%, ?, 15%, ?, -7.4%, ?, -33%, -11%
49: Cn1c(=O)c2ccccc2n(CC(=O)NCCC2=CCCCC2)c1=O
→ -18%, -2%[46.1 µM], -9%, /, /, -16%[46.1 µM], -2%, 8%
50: COc1cccc(N=Cc2c(O)n(-c3cccc(C)n3)c(=O)c3ccccc23)c1
→ 16%, -25%, -23%, 29%, -1.4%, -24%, 7%, 0%
51: Cc1cc(Cl)c(Cl)cc1S(=O)(=O)NCCCn1ccnc1
→ -3%, /, 36%[activator], /, /, /, 4%, 6%
52: CN1CCN(C(=S)Nc2cccc(S(=O)(=O)N(C)C)c2)CC1
→ 1%, ?, 3%, /, /, 8%, 2%, /

Three of the compounds above, with one line to a screen.
(45) CCN(c1ccccc1)S(=O)(=O)c1nnc(NC(=O)C2CCCCC2)s1
(46) CCCN(Cc1cc2cc(OC)ccc2[nH]c1=O)C(=O)c1ccco1
(47) Cc1cc(N2C(=O)C(O)=C(C(=O)c3cc4ccccc4o3)C2c2ccc([N+](=O)[O-])cc2)no1 (stereo not given)

Screen / compound no.,45,46,47
RE007 growth inh,/,1%,1%
Marburg entry inh,/,-6%,/
2A StopGo,-4%,-18%,0%
Cruzain inh noDet,-2%,/,/
Cruzain Triton,-3.5%,/,/
LASV entry inh,-10%[46.1 µM],-4%,/
SARS PLP yeast,/,-2%,-1%
NS1 inh,/,-4%,28%
